Screening data: PubChem, several laboratories
Arbovirus anti: antivirals against arbovirus infection; arbovirus infection cell-based antiviral screen; inhibition, % at 10 µM; hit rate 0.37% among 200,000; AID 1251;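 active = inhibition from about 30%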;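 note: bluetongue infection of BSR cells; cell survival read as ATP light after 72 h; 0% = infected wells without compound and 100% = uninfected wells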
RecA splice inh: inhibitors of M. tuberculosis RecA intein splicing; inhibition, %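 (about 9 µM by stock and volumes)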; hit rate 0.75% among 290,000; AID 2221; cell-free RecA intein splicing, fluorescence; in the data active = inhibition above about 30%; inconclusive = no clear call, values can overlap the other calls;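 note: 0% = vehicle wells and 100% = reference inhibitor control wells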
Target sequence (P9WHJ3 whole entry, looked up, canonical isoform): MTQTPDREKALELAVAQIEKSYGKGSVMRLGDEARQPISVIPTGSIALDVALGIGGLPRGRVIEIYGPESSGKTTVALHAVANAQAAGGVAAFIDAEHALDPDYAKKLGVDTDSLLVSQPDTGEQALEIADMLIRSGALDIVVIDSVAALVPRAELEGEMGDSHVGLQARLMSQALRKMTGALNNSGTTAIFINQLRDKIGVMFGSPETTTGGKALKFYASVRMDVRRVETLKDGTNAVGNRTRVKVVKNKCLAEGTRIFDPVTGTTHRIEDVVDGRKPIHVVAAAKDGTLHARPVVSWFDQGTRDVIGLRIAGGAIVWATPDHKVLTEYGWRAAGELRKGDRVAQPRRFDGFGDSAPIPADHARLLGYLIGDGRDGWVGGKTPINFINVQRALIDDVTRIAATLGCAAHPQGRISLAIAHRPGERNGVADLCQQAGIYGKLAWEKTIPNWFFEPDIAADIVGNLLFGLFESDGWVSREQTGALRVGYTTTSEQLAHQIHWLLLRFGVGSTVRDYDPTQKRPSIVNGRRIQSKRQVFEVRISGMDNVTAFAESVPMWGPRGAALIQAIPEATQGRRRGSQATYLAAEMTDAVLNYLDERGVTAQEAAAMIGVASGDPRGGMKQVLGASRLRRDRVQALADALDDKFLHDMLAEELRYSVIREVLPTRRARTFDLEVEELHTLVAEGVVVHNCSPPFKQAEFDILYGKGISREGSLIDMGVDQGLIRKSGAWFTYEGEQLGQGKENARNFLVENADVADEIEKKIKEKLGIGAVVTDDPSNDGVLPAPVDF
YopH inh: blocks Yersinia enterocolitica YopH tyrosine phosphatase | hit rate 0.16% among 140,000 | fluorescence Ex485/Em525 | AID 898 | inhibition, %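 (about 10 µM by stock and volumes)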;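 active = inhibition of 50% or more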;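 note: controls were vehicle for no effect and minimum signal wells for full effect; inactives centre near -20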
Mtb betalactam: beta-lactam sensitization of Mtb H37Rv. M. tuberculosis H37Rv growth with meropenem, percent inhibition; hits of this screen are not shown here. inhibition, % at 25 µM. hit rate 0.27% among 330,000. AID 434955;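 active = about 74% or more and at least 40 points above the plate without the antibiotic, then above 30% in a dose series; inconclusive = first-round hits that could not be retested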;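 note: growth measured after seven days incubation then overnight dye step; 0% = bacteria only wells and 100% = bacteria with antibiotic; twin plates without the antibiotic show which effects depend on it; some results filed as inactive read as strong as hits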
Mtb growth: M. tuberculosis H37Rv growth inhibitors, H37Rv strain (AID 1626); M. tuberculosis H37Rv growth inhibition; higher % means a stronger effect; inhibition, % at 10 µM, or IC50 in µM where a hit was titrated; hit rate 0.95% among 220,000;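 active = confirmed in a dose series; inconclusive = inhibition above 80% but not taken into the dose series; inactive = below 80% or under 30% at every dose of the series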;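 note: bacteria incubated seven days before Alamar blue readout; 0% = bacteria only wells and 100% = bacteria with antibiotic wells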
Arbovirus anti repeat: second read-out of Arbovirus anti, no call of its own (marks repeat the call); inhibition, %; measured here: 10K subset replicate screen; many hits read low in the repeat;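 first of two repeat runs on a subset; 0% = infected and 100% = uninfected wells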
* marks the source's active call; other numbers are inactive results; ? = inconclusive; nt = no result given. Some of the compounds tested; count on the stated rates, not on these rows.

SMILES | Arbovirus anti | RecA splice inh | YopH inh | Mtb betalactam | Mtb growth | others
CCOC(=O)c1ccc(S(=O)(=O)N2CCN(C)CC2)cc1 | 1 | -2.3 | -32 | 0 | 1%
CCOc1cc(N2CCOCC2)c(OCC)cc1NC(=O)CN1CCC(Cc2ccccc2)CC1 | -23 | 0.2 | -15 | 97 | 59%
CCOc1cc(C(=O)Nc2cc(C)ccc2C)ccc1OCC(=O)N1CCCCC1 | -1 | -0.3 | -1 | -3 | 0%
Cc1ccc(-n2c(=O)c3sccc3n(CC(=O)NC3CCCC3)c2=O)cc1 | nt | -0.5 | nt | 0 | nt
Cn1c(NC(=O)c2ccc(Cl)cc2)cc(=O)n(C)c1=O | 19 | 0.5 | nt | -8 | 0%
CCOc1ccc(N2C(=O)CSC2=S)cc1 | nt | 1.3 | nt | 6 | nt
COc1ccccc1N(CC(=O)Nc1ccc2c(c1)OCO2)S(=O)(=O)c1ccccc1 | -4 | 6.1 | -34 | 0 | -9% | Arbovirus anti repeat=-6
CCc1ccc(-n2nnnc2SCC(=O)NNC(=O)c2ccco2)cc1 | 5 | -1.2 | -33 | 2 | -5%
COc1ccc(-c2cc(=O)c3ccccc3s2)cc1 | -17 | 6.0 | -46 | 19 | 2%
Cc1nc(Nc2ccccc2)[nH]c(=O)c1CCC(C)C | 5 | nt | -25 | -4 | -4%
CCOC(=O)N1CCN(C(=O)C2CC(c3cc(OC)ccc3OC)=NO2)CC1 (centres undefined) | 3 | 0.4 | -36 | -9 | -4%
CNc1cnn(-c2ccccc2)c(=O)c1Cl | -5 | -0.2 | -14 | -9 | 0%
N#Cc1ccccc1CCN1C(=O)c2ccccc2C1=O | nt | -2.2 | nt | -8 | nt
Cc1cccc(C(=O)OC(C)CN2CCCC2)c1 (centres undefined) | nt | -0.2 | nt | -5 | nt
CC1CN(C(=O)CCC(=O)N2CCC3(CC2)OCCO3)c2cc(Cl)ccc2O1 (centres undefined) | nt | -6.2 | nt | 3 | nt
CCOC(=O)c1c(C)[nH]c(C)c1C(=O)COC(=O)c1ccc(O)cc1 | -2 | 0.2 | nt | -8 | 6%
COc1cccc(C2=NOC(C(=O)NC(C)(C)C)C2)c1 (centres undefined) | 9 | 3.0 | 2 | -13 | 12%
Cc1c(Cl)cnn1CC(=O)NC1C(=O)N2C(C(=O)O)=C(CSc3nnnn3C)CSC12 (centres undefined) | 7 | 0.7 | nt | 27 | -10%
O=C(COC(=O)c1cc([N+](=O)[O-])ccc1N1CCOCC1)NC1CCCCC1 | nt | -1.0 | nt | -5 | nt
COc1cccc(C(=O)N/N=C(/c2ccccc2)c2ccccn2)c1 | -17 | 0.7 | -10 | 98 | ?
CCn1cc(C(=O)Nc2ccc(OC)c(S(=O)(=O)N3CCCCC3)c2)c(=O)c2ccc(C)nc21 | -1 | -4.2 | -39 | 3 | -2%
COc1ccc(-c2nn(-c3ccccc3)cc2C(=O)Nc2nccs2)cc1 | -36 | 16 | -4 | 100 | >100µM*
Cc1ccc(S(=O)(=O)N/N=C(\c2ccccc2)C2CC2)cc1 | nt | 3.3 | nt | -6 | nt
O=C(O)C[C@H]1c2cc(F)ccc2S(=O)(=O)N1C1CCN(Cc2ccccc2)CC1 | nt | -1.4 | nt | -6 | 0%
CC(C)(C)c1ccc(S(=O)(=O)NCC(=O)Nc2ccc(-c3nc4ccccc4s3)cc2)cc1 | -18 | 1.0 | -20 | 0 | 0%
Cc1ccc(NC(=O)CSc2nc3c(c(=O)[nH]2)CN(Cc2ccc(F)cc2)CC3)cc1C | 6 | -2.9 | 5 | 5 | 5%
CCOC(=O)C/C(N)=N/N(C)c1ncc(C(F)(F)F)cc1Cl | 2 | 2.9 | nt | 1 | -3%
CC(C)OC(=O)c1c(NS(=O)(=O)c2ccccc2)sc2c1CCCC2 | 8 | nt | -19 | 57 | -3%
CC(Oc1ccccc1)c1nnc(SCC(=O)NC2CC2)n1C (centres undefined) | nt | -8.3 | nt | -2 | nt
CCCN1CNC(=S)N(c2ccc(C(=O)OCC)cc2)C1 | -4 | -3.4 | -4 | 77 | 56%
CC(=O)Nc1ccc(OC(=O)Oc2ccc(NC(C)=O)cc2)cc1 | nt | 2.7 | nt | 3 | -4%
CCOc1ccc(N(CC)C(=O)COc2cc(=O)n(C)c3ccccc23)cc1 | 3 | 0.2 | -21 | 2 | -2%
O=S(=O)(c1ccccc1)N1CCN(Cc2ccc(Cl)cc2)CC1 | nt | 5.8 | nt | -6 | nt
CC1=C(C(=O)Nc2ccc(C)cc2)C(c2ccc(C)o2)C2=C(CC(C)(C)CC2=O)N1 (centres undefined) | -3 | nt | -13 | -5 | -1%
COc1ccc(S(=O)(=O)N2c3cc(Cl)ccc3Oc3nc4ccccc4nc32)cc1 | -18 | -3.4 | -26 | -10 | 1%
CCc1ccc(CNCCNCC(C)O)cc1 (centres undefined) | -2 | 3.8 | -14 | -2 | -7%
Cc1ccc(C(=O)N(c2ccccc2)C2CC(C)N(C(=O)c3ccco3)c3ccccc32)cc1 (centres undefined) | -13 | 16 | 10 | -7 | 1%
Cc1ccc(NC(=O)Cn2cnc3c(=O)n(C)c(=O)n(C)c32)c(C)c1 | -3 | 2.9 | -19 | -9 | -8%
Clc1ccccc1CN(Cc1ccco1)Cc1nnnn1C1CCCC1 | -19 | 25 | -15 | -5 | -5%
COc1ccc(NC(=O)CCn2c(=O)c3cccn3c3ccccc32)c(OC)c1 | nt | 1.4 | nt | 3 | nt
CCOc1ccc(NC2=CC(=O)CC(c3ccco3)C2)cc1 (centres undefined) | -10 | 1.1 | nt | 51 | 6%
O=C(O)CCc1nn2c3ccccc3nc2n(-c2ccccc2)c1=O | 0 | 0.9 | 6 | 0 | -10%
COc1ccc(CN(Cc2ccc(C(=O)O)cc2)C(=S)Nc2cccc(C)c2)cc1OC | 3 | -3.7 | nt | 1 | 0%
OCCCc1cn(CC2CCCCC2)nn1 | nt | -2.4 | nt | -4 | nt
O=S(=O)(/C=C/c1ccccc1)c1ccccc1 | 0 | 0.5 | 6 | ? | -4%

A stretch from the list above:
SMILES | Arbovirus anti | RecA splice inh | YopH inh | Mtb betalactam | Mtb growth | others
CCOc1ccc(NC2=CC(=O)CC(c3ccco3)C2)cc1 (centres undefined) | -10 | 1.1 | nt | 51 | 6%
O=C(O)CCc1nn2c3ccccc3nc2n(-c2ccccc2)c1=O | 0 | 0.9 | 6 | 0 | -10%
COc1ccc(CN(Cc2ccc(C(=O)O)cc2)C(=S)Nc2cccc(C)c2)cc1OC | 3 | -3.7 | nt | 1 | 0%
OCCCc1cn(CC2CCCCC2)nn1 | nt | -2.4 | nt | -4 | nt
O=S(=O)(/C=C/c1ccccc1)c1ccccc1 | 0 | 0.5 | 6 | ? | -4%

(continued)
SMILES | Arbovirus anti | RecA splice inh | YopH inh | Mtb betalactam | Mtb growth | others
CCc1cccc(NC(=O)CCCn2nc(C)c3c(C)n(-c4ccccc4)nc3c2=O)c1 | nt | -3.9 | nt | -6 | nt
O=C(O)C1C2C=CC(C2)C1C(=O)NCCCn1ccnc1 (centres undefined) | 4 | -0.1 | -18 | -14 | -8%
CCCSc1ccc([C@H]2N[C@@](C)(C(=O)OC)[C@H]3C(=O)N(C)C(=O)[C@@H]23)cc1 | nt | -0.5 | nt | 1 | nt
CCN(CC)CCNC(=O)Cc1c(C(=O)O)n(CC)c2ccccc12 | -8 | -2.8 | -43 | -1 | 8%
O=C(CNC(=O)c1ccc(N2C(=O)c3ccccc3C2=O)cc1)OCC(=O)c1ccc(Cl)cc1 | 13 | 0.7 | -14 | 9 | -2%
Cc1nc2scc(C)n2c(=O)c1S(=O)(=O)NCC1CCN(Cc2ccc(Cl)cc2)CC1 | nt | 2.7 | nt | -2 | nt
Cc1cccc2c1N(CCOc1ccc(C(C)(C)C)cc1)C(=O)C2=O | 0 | 4.2 | -4 | 3 | ?
O=C(O)C1C2CCC(C2)C1C(=O)N1CCCC1 (centres undefined) | nt | -0.1 | nt | -2 | nt
O=C(O)C1CCCCC1C(=O)N1CCN(S(=O)(=O)c2ccc(F)cc2)CC1 (centres undefined) | nt | -0.2 | nt | -7 | nt
COc1ccccc1Nc1ccc([N+](=O)[O-])cc1N | -14 | -2.6 | -6 | 2 | -2%
C=CCn1c(N)c(C(=O)OCC)sc1=S | -6 | 0.0 | -28 | -4 | -15%
O=C(Cn1c2ccccc2c(=O)c2ccccc21)N/N=C/c1cc([N+](=O)[O-])ccc1N1CCCCC1 | -6 | -3.2 | -22 | 9 | 2%
O=C(Cc1ccc(Br)cc1)NC1CCCCC1 | 1 | 1.5 | -6 | -10 | 0%
O=C(c1ccccc1-c1nc(-c2ccccc2Cl)no1)N1CCOCC1 | nt | -1.4 | nt | 1 | -5%
O=C(CCn1nc(-c2ccc(Cl)cc2)ccc1=O)N1CCN(c2ccccn2)CC1 | 0 | 2.6 | -25 | nt | nt
Cc1sc2nc(-c3cccnc3)[nH]c(=O)c2c1-c1ccccc1 | 1 | 6.5 | nt | -4 | 0%
COc1ccc(N(Cc2cc3ccccc3[nH]c2=O)S(=O)(=O)c2ccc(C)cc2)cc1 | nt | 1.0 | nt | -6 | nt
NS(=O)(=O)c1ccc(NC(=O)c2cc(-c3ccccc3O)n[nH]2)cc1 | nt | -1.1 | nt | 7 | nt
O=C1CCCC1C(=O)Nc1ccc2ccccc2c1 (centres undefined) | nt | 0.4 | nt | 5 | 29%
O=C(O)c1cnn(-c2nc(-c3ccc(Br)cc3)cs2)c1C(F)(F)F | nt | 8.8 | nt | 4 | nt
CCCN1CCN(CCCNC(=S)Nc2ccc3nc(N4CCN(CC)CC4)cc(C)c3c2)CC1 | 4 | -3.8 | nt | -1 | 5%
Cc1ccc(Oc2ncccc2/C=N/OCc2ccc(Cl)c(Cl)c2)cc1 | 22 | 0.1 | -10 | -5 | 5%
O=C(c1ccc2c3c(cccc13)CC2)C1CCCN(Cc2ccncc2)C1 (centres undefined) | -10 | 2.3 | nt | 49 | 3%
O=C(O)c1cn(-c2ccccc2)nc1-c1cccnc1 | 3 | -0.8 | -38 | -3 | -5%
Cn1cnc2cc(NCc3ccccc3O)ccc21 | nt | -1.4 | nt | 34 | nt
CCN(CC)S(=O)(=O)c1cccc(C(=O)NC(C)C(c2cccs2)N2CCCC2)c1 (centres undefined) | -5 | -0.3 | nt | -5 | 5%
Cc1ccc(Oc2cc(C)nc(-c3ccccc3O)n2)cc1 | 10 | 2.4 | -30 | 31 | 21%
CCC(CC)C(=O)N1CC(=O)Nc2ccc(F)cc2C1c1ccccc1 (centres undefined) | nt | -0.1 | nt | 6 | nt
CCC(Oc1ccc(C)c(C)c1)C(=O)O (centres undefined) | 8 | -3.1 | -9 | -4 | 2%
O=C(CN1CCCCC1)Nc1scc2c1c(=O)oc1ccccc12 | nt | 1.3 | nt | 2 | -8%
COc1cccc(/C=C/C(=O)OCC(=O)NCc2ccco2)c1OC | 7 | -0.3 | -17 | -2 | -4%
O=C(Nc1cccc(-n2cccn2)c1)C1CCCN(Cc2ccccc2F)C1 (centres undefined) | nt | 0.2 | nt | -11 | nt
CCC(Cc1ccccc1)NS(=O)(=O)c1ccc2c(c1)NC(=O)CS2 (centres undefined) | nt | -0.3 | nt | 22 | nt
C=CCN(C(=O)c1csnn1)C(C(=O)NC1CCCC1)c1ccc(Cl)cc1 (centres undefined) | nt | 0.2 | nt | 5 | nt
N#CCCCCn1ccc(NC(=O)c2ccc(Cl)cc2O)n1 | nt | -1.3 | nt | -8 | nt
COc1ccc(NC(=O)N2CCc3cc(OC)c(OC)cc3C2)cc1 | nt | -1.1 | nt | 3 | nt
N/C(=N\OC(=O)Cc1ccccc1[N+](=O)[O-])c1ccc(Br)cc1 | -6 | -0.5 | nt | 6 | 1%
Cc1ccc(CN2CC(C(=O)N3CC=C(c4ccccc4)CC3)CC2=O)cc1 (centres undefined) | nt | 2.4 | nt | -13 | nt
O=C(CCC(=O)N1CCCc2ccccc21)N1CCN(S(=O)(=O)c2ccccc2)CC1 | 0 | 11 | -22 | -11 | 5%
COC(=O)c1cc(C(=O)N2CCN(c3cccc(C)c3C)CC2)cc([N+](=O)[O-])c1 | -14 | 1.7 | nt | -1 | 3%
CN(C)CCCN(C(=O)CCOc1ccccc1)c1nc2ccc(F)cc2s1 | -16 | nt | nt | nt | 4%
Cc1c(C(=O)OCCOC(C)C)[nH]c2c1C(=O)CC(C)(C)C2 | -8 | -0.5 | -11 | -1 | -2%
CC(=O)Oc1ccccc1N(C(C)=O)S(=O)(=O)c1cccc([N+](=O)[O-])c1 | 3 | -1.7 | nt | 0 | 2%
COc1cccc2sc3ccc(C#Cc4ccc(N)cc4)cc3c(=O)c12 | nt | 7.6 | nt | 79 | nt
